# Assay outcomes: PubChem, several laboratories
# AI-2 QS mod = Vibrio harveyi AI-2 quorum sensing modulators, primary screen, JMH597 strain, luminescence/OD600 ratio. Vibrio harveyi JMH597 AI-2 luminescence/OD600 ratio, 9 h; hits give low values; strain lacks LuxN and CqsS sensors; 0 = neutral-control median. activity change, % at 7.5 µM. 300,000 compounds, 0.4% hits; in the data active = activity change below about -75%, passing the limit was not always enough; inconclusive = no clear call, values can overlap the other calls;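 note: luminescence divided by OD600 gain over 9 h not by final OD600 alone; inactives centre near 13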
# GSK3beta inhib = human GSK3beta kinase inhibitors, primary screen, biochemical, cell-free homogeneous, HTS. Glycogen synthase kinase-3 beta (Homo sapiens), P49841. GST-GSK3beta kinase, ADP-Glo luminescence, 60 min; hits give low values. activity score (negative = inhibition), % at 10 µM. 300,000 compounds, 0.038% hits. AID 2097, 2009;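 active = more than half of replicate wells score below -50%, meaning over 50% inhibition versus plate controls; inconclusive = some replicates but at most half score below -50%; inactive = no replicate scores below -50%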;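 note: 0% = median DMSO wells and -100% = median GW8510 positive control wells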
# Target sequence (P49841 whole entry, looked up): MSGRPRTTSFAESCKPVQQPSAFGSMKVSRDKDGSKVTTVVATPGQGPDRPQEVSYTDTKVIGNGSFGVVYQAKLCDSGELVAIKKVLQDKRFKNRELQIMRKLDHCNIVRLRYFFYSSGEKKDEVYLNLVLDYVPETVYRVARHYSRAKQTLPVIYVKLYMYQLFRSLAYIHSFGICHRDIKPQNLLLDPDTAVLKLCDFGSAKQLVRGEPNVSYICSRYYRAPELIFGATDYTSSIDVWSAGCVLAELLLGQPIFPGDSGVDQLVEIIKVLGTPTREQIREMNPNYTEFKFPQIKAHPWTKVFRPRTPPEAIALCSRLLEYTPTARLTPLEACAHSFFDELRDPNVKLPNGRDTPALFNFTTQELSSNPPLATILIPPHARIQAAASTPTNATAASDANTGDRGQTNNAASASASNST
#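 Test system: GST-fused GSK3beta enzyme, cell-free | Quantity: 1.6 ng GST-GSK3beta enzyme per well | Reagent: 25 µM ATP with peptide substrate | Schedule: 60 min enzyme reaction, room temperature | Signal: Luminescent ADP-Glo measurement of ADP formed | Read-out basis: Score relative to plate controls | Control set: DMSO and 20 µM GW8510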
# GSK3A inh = blockers of GSK3A enzyme activity – biochemical, luminescence, cell-free homogeneous, HTS, primary screen; inhibition, % at 10 µM; GSK-3 alpha kinase, ADP-Glo luminescence, 60 min; AID 2650, 2010; 320,000 compounds, 0.1% hits;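 in the data active = inhibition above about 50%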;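 note: GST-tagged GSK-3 alpha with peptide substrate and 25 µM ATP; 0% = DMSO neutral wells and 100% = GW8510 positive control wells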
# IEC-6 cytotox = cytotoxicity in IEC-6 intestinal epithelial cells, primary screen, cytotoxicity control for KLF5 inhibitor project, cell-based, luminescence; AID 1825, 2009; 290,000 compounds, 0.78% hits; IEC-6 cytotoxicity, luminescence viability; inhibition, % at 5 µM; in the data active = inhibition above about 22%;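 note: 0% = plate median of test compound wells and 100% = cytotoxic reference compound wells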
# KLF5 inhibitor = KLF5 expression inhibitors, primary screen, DLD-1 cells, luminescence. DLD-1 KLF5 promoter-luciferase reporter. inhibition, % at 5 µM. 290,000 compounds, 0.23% hits;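 active = inhibition above a per-plate limit of that plate's mean compound inhibition plus 3 SD, cut at about 60% in these data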;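 note: 0% = DMSO wells and 100% = LY294002 at 200 µM; higher means less KLF5 promoter-driven luciferase light; inactives centre near -14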
# HSP90 refold inh = HSP90 inhibitors, primary screen, cell lysate, luminescence; Heat shock protein HSP 90 (rabbit reticulocyte lysate; luciferase refolding); Rabbit reticulocyte lysate, luciferase refolding luminescence, 3 h; inhibition, % at 5.6 µM; 290,000 compounds, 0.91% hits;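 active = inhibition above the screen-wide mean plus 3 SD, computed separately per campaign, cut at about 16% in these data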;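 note: 0% = DMSO wells and 100% = 60 µM geldanamycin wells; inhibitors lower the luminescence because luciferase stays unfolded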
# aSyn UTR inh = MLPCN primary screen, SNCA 5' untranslated region. alpha-synuclein 5'UTR reporter, inhibitor activity. inhibition, % (tested at 7.5 µM). 300,000 compounds, 0.82% hits. AID 1813, 2009; in the data active = inhibition above about 60%; inconclusive = no clear call, values can overlap the other calls;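 note: H4 neuroglioblastoma cells stably carrying SNCA 5'UTR luciferase fusion; 0% = DMSO wells and 100% = positive control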
# Starred values were filed as active, the others as inactive; ? = inconclusive; . = not tested or not shown; & = joins results of further samples.
# Key to letters: A = AI-2 QS mod; B = GSK3beta inhib; C = GSK3A inh; D = IEC-6 cytotox; E = KLF5 inhibitor; F = HSP90 refold inh; G = aSyn UTR inh
O=C(Oc1c(-c2ccccc2)c(=O)n2c3c(cccc13)CC2)c1cccc([N+](=O)[O-])c1
  A: -1 | B: -2 | C: 0 | D: -1 | E: -3 | F: -2 | G: 77*
CCOc1cc(/C=C2\N=C(SC(C)C(N)=O)N(c3ccc(OC(F)F)cc3)C2=O)ccc1O (stereo not drawn)
  A: 25 | B: 0 | C: 0 | D: -9 | E: 36 | F: -4 | G: 19
CN1C2CC(OC(=O)C(CO)c3ccccc3)CC1C1OC12 (stereo not drawn)
  A: 7&-2 | B: -2&-3 | C: -3&-2 | D: -5&-7 | E: -10&-35 | F: -3&-5 | G: 9&-4
Cc1ccc(Nc2c(-c3ccc(C)o3)nc3ncccn23)cc1
  A: 10 | B: -3 | C: 0 | D: 6 | E: -160 | F: -1 | G: -7
NC(N)=NC(=O)c1nc(Cl)c(N)nc1N
  A: 21&24&9 | B: 0&4&-1 | C: 0&-2&3 | D: 4 | E: -17 | F: 1 | G: 9&-37&-1
Cc1ccsc1C(=CCCN1CCC[C@@H](C(=O)O)C1)c1sccc1C
  A: -4 | B: 0 | C: -6 | D: . | E: . | F: . | G: 14
Cc1c(C(=O)Nc2nonc2-c2ccc(F)cc2)oc2ccc(F)cc12
  A: -9 | B: 6 | C: -8 | D: 7 | E: 0 | F: -2 | G: ?
O=C(O)C[C@@H](O)C(=O)O
  A: 12 | B: 1 | C: 1 | D: -8 | E: -41 | F: 2 | G: 7
COc1cccc2cc(-c3nc4ccccc4o3)c(=O)oc12
  A: 11 | B: -2 | C: 8 | D: 4 | E: -1 | F: 19* | G: -169
CC(NC(=O)c1ccc(Br)cc1)c1ccccc1 (stereo not drawn)
  A: 9 | B: -1 | C: 1 | D: 0 | E: -14 | F: -3 | G: -37
CC(NC(=O)c1ccc(Br)cc1Br)c1ccccc1 (stereo not drawn)
  A: 3 | B: -3 | C: -3 | D: -6 | E: 1 | F: -1 | G: -5
CCOC(=O)c1cc2ccc3ccccc3c2s1
  A: 27 | B: 1 | C: 0 | D: 4 | E: -2 | F: -4 | G: -169
Nc1ccn([C@H]2C[C@H](O)[C@@H](CO)O2)c(=O)n1
  A: 16&23 | B: 0&3 | C: 8&-6 | D: 5 | E: -40 | F: -1 | G: -2&7
NC(=O)c1ncn([C@@H]2O[C@H](CO)[C@@H](O)[C@H]2O)c1O
  A: 6 | B: -3 | C: -3 | D: 3 | E: -3 | F: 4 | G: 6
COc1cc(/C=C2\SC(=S)N(NC(=O)c3ccncc3)C2=O)ccc1O
  A: 30 | B: -3 | C: -1 | D: -2 | E: -32 | F: 1 | G: 2
NCCS(=O)(=O)O
  A: 2 | B: -1 | C: 3 | D: . | E: . | F: . | G: 15
CC(=O)OCC(=O)[C@@]1(O)CCC2C3CCC4=CC(=O)CCC4(C)C3C(=O)CC21C (stereo partly drawn)
  A: 13 | B: 1 | C: . | D: 0 | E: -34 | F: -3 | G: 2
CC(=O)O[C@]1(C(C)=O)CC[C@H]2[C@@H]3C[C@H](C)C4=CC(=O)CC[C@]4(C)[C@H]3CC[C@@]21C
  A: 25 | B: -2 | C: -2&-3 | D: 6 | E: 1 | F: 1 | G: -25
O=C(NCCC1=CCCCC1)c1c(O)nc2ccccn2c1=O
  A: -15 | B: -2 | C: 1 | D: 4 | E: -50 | F: -1 | G: -52
O=C(O)c1ccc(SCc2cnc(Cl)s2)cc1
  A: 52 | B: 5 | C: -3 | D: -4 | E: -19 | F: 1 | G: 4
OC(CNCC1CCCO1)Cn1c2ccc(Cl)cc2c2cc(Cl)ccc21 (stereo not drawn)
  A: 9 | B: 0 | C: 0 | D: 4 | E: -22 | F: 2 | G: 4
O=C1c2cnc3nc(SCc4ccccc4)nn3c2CC2c3ccccc3CCN12 (stereo not drawn)
  A: 2 | B: 3 | C: -2 | D: -5 | E: -16 | F: -1 | G: -2
COc1ccc2c(c1)C(=O)N(CCc1ccc(S(=O)(=O)NC(=O)NC3CCCCC3)cc1)C(=O)C2(C)C
  A: -40 | B: 5 | C: -2 | D: -9 | E: -11 | F: -5 | G: 12
O=C(NCN1CCOCC1)c1cnccn1
  A: 23 | B: 5 | C: 0 | D: -8 | E: -7 | F: -4 | G: -31
Cn1c(-c2ccccc2)c[n+]2c1-c1ccccc1C2
  A: 14 | B: -1 | C: -5 | D: 5 | E: -11 | F: -5 | G: -17
CCCCCCCCCCCC(=O)N/N=C/c1ccco1
  A: -13 | B: -3 | C: -2 | D: 2 | E: -10 | F: 1 | G: 7
O=C1C=C(c2ccccc2)OC(=O)C1C(=O)c1ccccc1 (stereo not drawn)
  A: 67 | B: 1 | C: 0 | D: -4&1 | E: -12&-30 | F: 7&0 | G: 0
COc1ccccc1N1CCN(C(=O)CCNS(=O)(=O)c2ccc(Br)s2)CC1
  A: 23 | B: 3 | C: -2 | D: -1 | E: -12 | F: -1 | G: 37
CC(=O)Oc1ccccc1C(=O)O
  A: 37 | B: 3 | C: -3 | D: . | E: . | F: . | G: 7

# Fetched by structure from the list above:
# Key to letters: A = AI-2 QS mod; B = GSK3beta inhib; C = GSK3A inh; D = IEC-6 cytotox; E = KLF5 inhibitor; F = HSP90 refold inh; G = aSyn UTR inh
O=C(NCN1CCOCC1)c1cnccn1
  A: 23 | B: 5 | C: 0 | D: -8 | E: -7 | F: -4 | G: -31
CCCCCCCCCCCC(=O)N/N=C/c1ccco1
  A: -13 | B: -3 | C: -2 | D: 2 | E: -10 | F: 1 | G: 7

# An excerpt of these results, as tab-separated lines.
Molecule	AI-2 QS mod	GSK3beta inhib	GSK3A inh	IEC-6 cytotox	KLF5 inhibitor	HSP90 refold inh	aSyn UTR inh
Cc1ccsc1C(=CCCN1CCC[C@@H](C(=O)O)C1)c1sccc1C	-4	0	-6	.	.	.	14
Cc1c(C(=O)Nc2nonc2-c2ccc(F)cc2)oc2ccc(F)cc12	-9	6	-8	7	0	-2	?
O=C(O)C[C@@H](O)C(=O)O	12	1	1	-8	-41	2	7

# This is a subset. The share of hits here may be higher or lower than overall.
